Bioassay records from PubChem BioAssay.
A1 inh = inhibitors of the anti-apoptotic protein A1, read as caspase activation; caspase activation, % (no concentration beside the values); actives 0.066% (n = 330,000); MEF A1-2A-BIM cells, Caspase-Glo 3/7 luminescence, 3 h; percent of clofoctol response, vehicle zero; AID 2462;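 active = over half of replicate activation scores above 10%, or exactly half above 10 with the replicate mean above 10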;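 also: wells of about 30 µL received 50 nL stock; many hits fall short of the cut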
Beta cell apopt = blocks beta cell apoptosis; protection from apoptosis, % (concentration not given with the values); INS-1E cytokine-induced death, ATP luminescence, 48 h; percent of positive-control rescue, neutral wells zero; AID 435005; actives 0.8% (n = 300,000);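 active = all replicates at 75% or more, or half of them and the mean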;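 also: 0% = cytokine-treated negative control wells and 100% = positive control rescue; higher means more ATP so stronger rescue from cytokine killing; wells of about 40 µL received 100 nL stock; the first replicate is given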
T cruzi repl = blocks replication of Trypanosoma cruzi; inhibition, % (test concentration not listed); AID 1885; T. cruzi beta-gal in NIH3T3, luminescence, 90 h; actives 1.4% (n = 300,000);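 active = mean inhibition across valid replicates above about 55%, limit read from the data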;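 also: signal also drops with host cell toxicity which is not excluded here; 0% = plate median of DMSO wells and 100% = zero luminescence signal; higher percent means less beta-gal luminescence so fewer parasites; stock transfer was 50 nL into about 50 µL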
Calb FLC = C. albicans growth modulation with fluconazole; C. albicans CaCi-2 (fluconazole-resistant clinical isolate) + fluconazole, Alamar Blue growth, 48 h; growth inhibition, % (test concentration not listed); actives 0.57% (n = 300,000); AID 1979;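 active = most replicates above 75%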;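 also: all wells also contain fluconazole at 8 µg/ml as a sub-toxic cotreatment; 0% = median of DMSO wells and 100% = median of geldanamycin control wells; wells of about 8 µL received 7.5 nL stock; the first replicate is given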
rRNA inh HTS = selective bacterial rRNA inhibition in E. coli. E. coli WT GFP vs humanized-ribosome RFP mutants, fluorescence, 24 h; active compounds read low; DMSO median 0, no signal -100. GFP signal change (wild-type ribosome), % (test concentration not listed). actives 1.6% (n = 350,000);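 active = significant combined selectivity score with lowered wild-type GFP, culture density cut under 30%, mutant RFP and density less affected; inactive = any of these conditions unmet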; also: one replicate is shown; some compounds called inactive have numbers as strong as hits
ALR H2O2 inh = inhibitors of human sulfhydryl oxidase ALR; inhibition, % (test concentration not listed); purified ALR, DTT oxidation, H2O2 HRP-luminol luminescence; actives 3.8% (n = 290,000);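 active = mean and each replicate at 75% or more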;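 also: stock transfer was 7.5 nL into about 7.5 µL; 0% = neutral wells and 100% = wells with inactivated enzyme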
Beta2AR agonist = human beta-2 adrenergic receptor agonism by FAP; Am2.2-beta2AR cells, FAP receptor internalization, flow cytometry; reference of the scale not given here; response, % (test concentration not listed); actives 0.43% (n = 340,000); AID 504454;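 active = response above a set limit, near 3 SD of response in nonfluorescent compounds, cut at about 42% in these data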;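 also: stock transfer was 100 nL into about 11 µL; a reference agonist was the positive control; negative values mostly stem from fluorescent compounds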
LANA-H2A inh = blocks KSHV LANA binding to histone H2A/H2B; Q9QR71; cell-free LANA-H2A/H2B peptide, fluorescence polarization; inhibition, % (test concentration not listed); actives 0.6% (n = 320,000); in the data active = inhibition mostly above about 10%, no sharp cut-off; inactive = mostly below about 6.7%;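 also: stock transfer was 7.5 nL into about 10 µL; 0% = median of vehicle wells and 100% = median of positive control wells; one replicate is shown; the record names a cut of 25% in any replicate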
Target sequence (Q9QR71 whole entry, looked up): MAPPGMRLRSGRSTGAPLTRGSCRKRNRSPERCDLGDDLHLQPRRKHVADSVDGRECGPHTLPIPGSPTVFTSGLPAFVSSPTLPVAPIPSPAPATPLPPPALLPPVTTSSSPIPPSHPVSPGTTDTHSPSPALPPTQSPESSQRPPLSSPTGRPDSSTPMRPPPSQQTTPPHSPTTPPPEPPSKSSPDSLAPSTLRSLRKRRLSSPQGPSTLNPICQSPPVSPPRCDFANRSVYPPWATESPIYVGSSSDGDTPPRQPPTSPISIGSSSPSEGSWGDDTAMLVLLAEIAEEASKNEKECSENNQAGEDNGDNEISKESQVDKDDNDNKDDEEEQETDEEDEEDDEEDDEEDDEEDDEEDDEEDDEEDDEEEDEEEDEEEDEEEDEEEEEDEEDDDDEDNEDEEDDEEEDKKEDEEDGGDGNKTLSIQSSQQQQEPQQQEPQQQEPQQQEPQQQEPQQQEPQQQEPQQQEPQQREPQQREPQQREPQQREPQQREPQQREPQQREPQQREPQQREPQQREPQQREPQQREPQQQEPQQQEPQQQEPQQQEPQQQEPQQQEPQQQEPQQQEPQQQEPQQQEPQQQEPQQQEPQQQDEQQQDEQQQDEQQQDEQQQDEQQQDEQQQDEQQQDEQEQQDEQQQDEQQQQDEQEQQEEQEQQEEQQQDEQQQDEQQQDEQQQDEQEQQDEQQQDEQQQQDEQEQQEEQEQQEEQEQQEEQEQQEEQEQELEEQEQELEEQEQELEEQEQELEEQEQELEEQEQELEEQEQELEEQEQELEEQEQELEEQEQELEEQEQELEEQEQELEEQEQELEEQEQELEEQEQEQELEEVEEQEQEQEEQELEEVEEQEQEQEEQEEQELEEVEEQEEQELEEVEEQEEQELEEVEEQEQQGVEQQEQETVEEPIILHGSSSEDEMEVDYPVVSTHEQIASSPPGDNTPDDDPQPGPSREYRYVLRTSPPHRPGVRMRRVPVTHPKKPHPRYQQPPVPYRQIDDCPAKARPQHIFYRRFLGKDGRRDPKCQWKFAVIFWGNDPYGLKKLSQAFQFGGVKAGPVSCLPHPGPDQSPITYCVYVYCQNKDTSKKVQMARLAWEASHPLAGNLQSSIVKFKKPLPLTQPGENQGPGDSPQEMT
rRNA inh HTS OD600 = recorded beside rRNA inh HTS, whose call it bears; OD600 change, %; measured here: OD600 growth;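 optical density of the mix in the first replicate; 0 = DMSO median and -100 = no signal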
rRNA inh HTS RFP = further read-out of rRNA inh HTS, marked with its call; RFP signal change, %; measured here: RFP humanized mutant strains;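 first replicate; 0 = DMSO median and -100 = no signal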
* marks the source's active call; other numbers are inactive results; · = not tested or not shown.

Order of values – A1 inh | Beta cell apopt | T cruzi repl | Calb FLC | rRNA inh HTS | rRNA inh HTS OD600 | rRNA inh HTS RFP | ALR H2O2 inh | Beta2AR agonist | LANA-H2A inh
CCCCOP(=O)(CN1CCOCC1)OCCCC
  1.0 | -1.3 | 6.9 | -2.7 | -4.0 | 2.3 | 0.7 | · | 8.8 | 0.1
CC(C)NS(=O)(=O)c1ccc(OCC(=O)N2CCN(C)CC2)cc1
  -0.2 | -1.3 | 20.7 | -6.1 | -2.8 | 7.7 | -0.9 | · | 0.4 | -1.3
CCN1CCN(Cc2cc3c(cc2[N+](=O)[O-])OCO3)CC1
  0.7 | -0.6 | 0.5 | 0.9 | 11.7 | 13.6 | 0.2 | -20.6 | 0.9 | 1.9
CN1CCC(n2nccc2N)CC1
  0.4 | · | 7.0 | -2.2 | · | · | · | -3.6 | -7.8 | -8.2
N/C(=N\[N+](=O)[O-])NCCCC(NC(=O)CNC(=O)c1ccccc1)C(=O)O (configuration not stated)
  -0.4 | · | 3.7 | -2.7 | 2.3 | 9.8 | 2.4 | -10.3 | -1.8 | -4.8
COc1ccccc1/C=N/N=C(/N)N[N+](=O)[O-]
  -2.1 | -1.3 | -15.5 | -7.0 | -8.0 | 8.8 | -2.7 | 0.5 | -0.5 | -3.7
CCOC(=O)c1sc(N=Nc2c(O)[nH]c(=O)[nH]c2=O)c(C(=O)OCC)c1C
  0.1 | -6.4 | -19.2 | 18.5 | · | · | · | -2.0 | · | 5.3
Cc1ccc(N/N=C/c2c(O)n(-c3ccccc3)c(=O)[nH]c2=O)cc1
  -1.7 | -13.9 | 25.6 | -4.2 | -11.5 | -8.1 | 2.7 | 57.5 | 1.5 | 4.5
O=C(c1ccc(Cl)cc1)C1CCCN(Cc2cccc3cccnc23)C1 (configuration not stated)
  -0.3 | 0.3 | 11.7 | 2.2 | -23.4* | -17.2* | 1.2* | -6.0 | 4.6 | -3.4
CCN(CC)P(=O)(Oc1ccccc1)Oc1ccccc1
  -0.3 | 2.6 | 12.0 | -9.6 | -31.6* | 8.3* | -1.6* | -6.4 | -2.2 | -2.2
C=C1C(=O)O[C@@H]2C[C@@H](C)[C@@H]3C4OC4C(=O)[C@@]3(C)[C@@H](O)[C@H]12 (some centres not stated)
  0.2 | 104.5* | 45.9 | 76.8* | -1.5 | 15.1 | -3.2 | 97.6* | 43.3* | -2.5
Cn1cccc1/C=C1\C(=O)NC(=O)N(Cc2ccccc2)C1=O
  2.5 | 7.3 | -8.3 | -6.7 | 15.9 | 15.3 | 5.6 | 1.5 | 23.9 | 1.5
CC(=O)O[C@@H]1[C@H]2CC[C@@H]3[C@]1(C[C@@H](OC(C)=O)[C@@]1(O)C([C@@H]4O[C@@H]4C1(C)C)[C@]3(C)O)C[C@@]2(C)O (some centres not stated)
  0.6 | -8.1 | 8.0 | -6.6 | 0.5 | 14.4 | 4.9 | 2.7 | 0.2 | 4.6
C[C@]12CC[C@H](O)CC1=C([N+](=O)[O-])CC1C2CC[C@@]2(C)C1CC[C@@H]2O (some centres not stated)
  -0.1 | -1.5 | · | · | -34.1 | -40.4 | -7.5 | 1.8 | 3.8 | -0.8
O=C1NC(=O)C(=Cc2coc3ccccc3c2=O)C(=O)N1
  -0.6 | -6.4 | -8.2 | -10.4 | 11.0 | 9.2 | 1.2 | 14.3 | 6.8 | 3.0
COc1ccc(CC(=O)Nc2ccc(C#N)c(Cl)c2)cc1S(=O)(=O)N1CCOCC1
  0.8 | -0.1 | 2.5 | -14.6 | -13.1 | -15.9 | -0.6 | -0.2 | 12.9 | 8.0
COc1ccc(C2(C#N)CCN(C)CC2)cc1
  -0.5 | 4.3 | -3.2 | 27.9 | 4.3 | 10.6 | -6.2 | -1.3 | -2.1 | -2.5
Cc1cc(/C=C2\C(=O)NC(=O)N(c3cccc(F)c3)C2=O)c(C)n1-c1ccc(C(=O)O)c(Cl)c1
  -0.3 | -7.1 | -8.8 | -10.4 | 4.2 | 4.4 | 7.2 | 45.4 | 5.1 | 1.4
CC(C)COP(=O)(OCC(C)C)C(O)c1cccnc1 (configuration not stated)
  -0.5 | 10.3 | -3.8 | 14.8 | · | · | · | -12.1 | 14.0 | 2.5
CCOC(=O)C1(CCOc2ccccc2)CCN(Cc2cccc(O)c2)CC1
  -0.9 | -3.5 | -13.2 | -8.6 | -2.0 | -1.8 | -3.7 | · | -3.7 | -6.6
O=C1Nc2ccc(Br)cc2C(c2ccccc2)=NC1O (configuration not stated)
  -0.8 | -1.5 | -6.5 | 0.4 | -4.8 | -9.0 | -3.1 | -1.2 | 2.5 | -7.3
CN1C[C@H](CO)C=C2c3cccc4[nH]cc(c34)C[C@H]21
  -0.5 | -2.5 | 1.6 | 2.1 | 15.3 | 6.9 | 14.3 | 20.6 | 6.0 | 2.1
COCCOC(=O)C1=C(N)Oc2c(c(=O)oc3ccccc23)C1c1ccncc1 (configuration not stated)
  0.2 | · | -4.7 | 19.4 | · | · | · | 8.2 | -28.0 | 0.2
CCOC(=O)c1c(NC(NC(=O)CF)C(Cl)(Cl)Cl)sc2c1CCCC2 (configuration not stated)
  -0.5 | -2.3 | 22.9 | 12.9 | · | · | · | · | 2.5 | ·
CN1C(=O)C(=Cc2ccc(N(C)C)c([N+](=O)[O-])c2)C(=O)N(C)C1=O
  -0.6 | -4.2 | -12.3 | -3.8 | · | · | · | 32.9 | · | -0.7
Cc1ccc2c(c1)C1CN(C)CCC1N2C(=O)c1cn(-c2ccccc2)nc1-c1ccccc1 (configuration not stated)
  0.3 | 12.6 | 52.6 | 9.5 | -27.2 | -35.8 | -2.2 | 24.5 | 18.7 | -4.7
O=C(Cc1ccccc1F)N1CCN(CC(=O)N2CCCC2)CC1
  1.7 | -3.2 | · | · | 6.6 | 9.8 | -1.3 | -16.2 | -3.8 | 3.4
CC(C)c1ccc(N=Nc2c(O)[nH]c(=O)[nH]c2=O)cc1
  -3.9 | 1.4 | 3.7 | -8.9 | 10.0 | 5.4 | 1.9 | -3.8 | 13.4 | -1.3
C(#CCN1CCCCC1)COCc1ccccc1
  0.9 | -4.6 | 3.5 | -3.2 | 11.6 | -5.6 | 4.3 | · | 1.2 | -4.2
COC(=O)C1=C(c2ccc3ccccc3c2)C[C@@H]2CC[C@H]1N2C(=O)NCCCOC(C)C
  0.3 | -11.4 | · | · | -24.9 | -34.3 | 1.7 | -12.2 | -0.2 | 5.5

One compound at a time, as listed above. Order of screens: A1 inh | Beta cell apopt | T cruzi repl | Calb FLC | rRNA inh HTS | rRNA inh HTS OD600 | rRNA inh HTS RFP | ALR H2O2 inh | Beta2AR agonist | LANA-H2A inh
Listed for O=C(Cc1ccccc1F)N1CCN(CC(=O)N2CCCC2)CC1 : 1.7 | -3.2 | · | · | 6.6 | 9.8 | -1.3 | -16.2 | -3.8 | 3.4
Listed for CCOC(=O)c1sc(N=Nc2c(O)[nH]c(=O)[nH]c2=O)c(C(=O)OCC)c1C : 0.1 | -6.4 | -19.2 | 18.5 | · | · | · | -2.0 | · | 5.3

Going on with the list.
Order of values – A1 inh | Beta cell apopt | T cruzi repl | Calb FLC | rRNA inh HTS | rRNA inh HTS OD600 | rRNA inh HTS RFP | ALR H2O2 inh | Beta2AR agonist | LANA-H2A inh
Cc1ccc2c(c1)C(c1ccccc1)NCC(=O)N2 (configuration not stated)
  -0.4 | -4.3 | -1.3 | -1.2 | · | · | · | 3.3 | 4.4 | 3.3
COC(=O)C1=C(c2ccc(F)cc2OCc2ccccc2)C[C@@H]2CC[C@H]1N2C(=O)NCc1cccc(OC)c1
  0.1 | -2.6 | · | · | -15.9 | -23.8 | -0.4 | 4.7 | 0.3 | -7.8
COc1cc(C2SCC(=O)Nc3c2c(C)nn3-c2ccccc2)cc(OC)c1OC (configuration not stated)
  0.4 | · | 5.7 | -0.2 | · | · | · | 5.1 | -15.3 | 4.3
COc1ccc(CCNCc2ccc(C)s2)cc1OC
  0.0 | -1.0 | 24.0 | -5.8 | 3.3 | -4.1 | -4.2 | -8.9 | -4.2 | 4.9
CC(=O)OC1CCC2(/C=N/O)C(=CCC3C4CCC(=O)C4(C)CCC32)C1 (configuration not stated)
  -0.4 | 5.9 | 4.9 | -0.2 | 6.5 | 1.6 | -1.5 | · | -1.7 | 1.2
CN1CCCN(c2ccc([N+](=O)[O-])nc2)CC1
  0.4 | 0.6 | -7.2 | 1.3 | 10.0 | 22.4 | -0.6 | -4.5 | 13.2 | 2.4
CCCCCn1c(=O)c(C(=O)Nc2cnccn2)c(O)c2ccccc21
  0.3 | 72.8 | -18.3 | 9.8 | 9.7 | 22.7 | -3.5 | 1.8 | 5.3 | -4.9
O=C(Cc1ccccc1)OCC(=O)c1ccc(F)cc1
  1.2 | -4.7 | · | · | 5.8 | 6.6 | 3.1 | -1.8 | -3.8 | 2.1
Cc1nn(C)c(C)c1/C=C1/CC2C3CC=C4CC(O)CCC4(C)C3CCC2(C)C1=O (configuration not stated)
  -1.7 | -3.9 | 20.1 | 3.7 | · | · | · | · | 7.0 | -3.0
CN(C)C1C(=O)C(C(N)=O)=C(O)C2(O)C(=O)C3=C(O)c4c(O)cccc4C(C)(O)C3C(O)C12 (configuration not stated)
  0.1 | -1.9 | -4.6 | · | 1.4 | -72.5 | -2.0 | 6.9 | 3.4 | -2.4
CCOC(=O)C(NC(=O)CCl)(Nc1ccc(C(O)(C(=O)OCC)C(F)(F)F)cc1)C(F)(F)F (configuration not stated)
  0.6 | -6.9 | 14.2 | -11.6 | -23.6 | -35.0 | 2.8 | -0.5 | 5.1 | -2.3
CCCCn1c(O)c(C(=O)/C=C/c2ccc3c(c2)OCO3)c(=O)[nH]c1=O
  0.4 | · | -17.3 | 0.4 | -0.1 | 5.2 | 0.7 | · | 1.5 | 4.8
CCCCOc1ccc(CC2C(=O)N(C)C(=O)N(C)C2=O)cc1
  -0.3 | -0.6 | 1.6 | 12.0 | · | · | · | 2.8 | -2.6 | -2.0
CCOC(=O)C1(CCOc2ccccc2)CCN(Cc2ccc(C)s2)CC1
  0.2 | 18.9 | 50.3 | -17.8 | -42.7 | -58.3 | -8.1 | 0.4 | 4.9 | -11.1
Cc1ccccc1C1=NCC(=O)N(CC(=O)N2CCCCC2)c2sc(C)c(C)c21
  1.2 | 2.5 | -2.2 | -6.4 | · | · | · | -18.3 | -0.3 | 5.2
COC(=O)C1=C(c2ccc(OC(F)(F)F)cc2)C[C@@H]2CC[C@H]1N2C(=O)NC(C)C
  0.0 | -9.0 | · | · | -4.0 | -17.4 | -3.7 | 1.4 | -0.6 | 2.9
CC(=NC(C)c1ccccc1)c1c(O)[nH]c(=O)[nH]c1=O (configuration not stated)
  0.2 | -6.5 | -29.3 | -21.1 | · | · | · | 1.4 | -3.2 | -7.0
CN1CCN(c2ccc(C(N)=O)cc2N)CC1
  -0.8 | -1.8 | 6.0 | -4.9 | · | · | · | -6.7 | 0.3 | 0.5
COC(=O)C1=C(c2ccc(OC(F)(F)F)cc2)C[C@@H]2CC[C@H]1N2C(=O)NCCCOC(C)C
  0.6 | -3.2 | · | · | 2.9 | -11.4 | 14.6 | 3.1 | -1.9 | -6.3

The list is partial; the hit share may differ from the screen's.
